Sa growth 42C = S. aureus growth inhibition at 42 and 30 °C, primary screen, LtaS inhibitor project, RN4220, two temperatures; OD600, 20 h, 42 °C; hits give low values; relative growth, % (concentration not given with the values); 170,000 tested, 0.53% active;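 active means growth at 42 °C up to 50% and 20 or more points under that at 30 °C, or under 10% at both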;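 further: 300 nL library stock went into each well; scaled to the means of positive and negative controls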
HCMV UL50-53 inh = inhibitors of HCMV UL50-UL53 interaction, biochemical, HTRF | inhibition, % (test concentration not listed) | 190,000 tested, 0.15% active | normalized percent inhibition | HCMV UL50-UL53 nuclear egress complex (human cytomegalovirus);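 active means both replicates at 50% or more, plus weaker picks with an unusually low signal ratio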;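 further: stock transfer was 100 nL into about 20 µL; 0% = negative control wells and 100% = wells with untagged competitor protein; inactives centre near -12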
GIV-Gai inh = inhibitors of GIV peptide binding to Galpha-i3, primary screen, biochemical, fluorescence polarization, FITC-GIV GBA peptide, rat Galphai3; Guanine nucleotide-binding protein G(i) subunit alpha-3 (Rattus norvegicus), P08753; 90 min; hits give low values; scaled: aluminum fluoride 0%, vehicle 100%; 210,000 tested, 0.42% active; AID 1224905, 2016; percent of control (FP), % (concentration not given with the values);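 active means replicate mean at 85% of control or lower, very high polarization wells dropped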;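 further: wells of about 15 µL received 100 nL stock; the first replicate is given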
Target sequence (P08753 whole entry, looked up): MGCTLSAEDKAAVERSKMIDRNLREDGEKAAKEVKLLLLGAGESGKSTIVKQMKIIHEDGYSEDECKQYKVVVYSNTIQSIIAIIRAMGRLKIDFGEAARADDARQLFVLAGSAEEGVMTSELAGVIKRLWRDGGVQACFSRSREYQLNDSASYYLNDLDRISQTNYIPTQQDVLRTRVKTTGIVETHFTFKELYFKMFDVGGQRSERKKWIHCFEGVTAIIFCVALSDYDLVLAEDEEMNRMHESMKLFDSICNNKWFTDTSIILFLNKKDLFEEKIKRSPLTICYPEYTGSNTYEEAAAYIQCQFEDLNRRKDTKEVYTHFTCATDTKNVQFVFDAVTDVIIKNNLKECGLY
Sa growth 42C second temp = further read-out of Sa growth 42C, marked with its call; relative growth, %; measured here: growth at 30 °C;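 optical density after 20 h as mean of two plates; 100% = untreated growth and lower means inhibition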
Starred values were filed as active, the others as inactive; / = no result given; & = joins results of further samples.

SMILES	Sa growth 42C	Sa growth 42C second temp	HCMV UL50-53 inh	GIV-Gai inh
COCc1cc(C)nc(SCC(=O)N2CCCCC2)c1C#N	94	81	-9	/
CCc1cccc(Nc2ncnc3c2nc2n3CCCCC2)c1	100	64	/	99
CN(C)C(=O)c1ccc2c(c1)N(CC(=O)Nc1ccc3c(c1)OCO3)C(=O)CS2	/	/	-20	115
O=C(Cn1nc2n(CCc3ccccc3)c(=O)c3ccccc3n2c1=O)c1cccc(Cl)c1	/	/	9	103
Cc1nn(S(=O)(=O)c2ccc(Cl)cc2)cc1-c1nsc(Nc2ccccc2)n1	88	52	-26	103
COc1ccc(CNC(=O)CCCc2cn(C)c3ccccc23)c(OC)c1	80	95	/	109
O=C(/C=C/C=C/c1ccccc1)c1ccncc1	1.0*	1.4*	-56	98
COc1cccc(C2CC(=O)NC(SCC(=O)Nc3ccc(Br)cc3)=C2C#N)c1 (stereo not given)	/	/	-2	102
CCOc1ccc(C2C(C(=O)OC)=CN(CC(C)C)C=C2C(=O)OC)cc1OC	84	86	-18	109
CSc1nnc([C@H](C)NC(=O)OC(C)(C)C)o1	111	93	-13	103
CCOC(=O)c1cccc(NC(=O)NCc2ccc3c(c2)CCN3C(=O)CC)c1	86	75	/	101
Cc1cc(C)c(C(=O)CSC2=NC(N)=C(C#N)C3(CCCCC3)C2C(N)=O)cc1C (stereo not given)	98	95	-22	104
CCOC(=O)c1c(NC(=O)CCN2C(=O)c3cccc([N+](=O)[O-])c3C2=O)sc(C(C)=O)c1C	/	/	-20	100
CCCn1cnc2nc(CSc3ccccc3NC(=O)Nc3ccccc3Cl)cc(=O)n21	/	/	-2	105
Cc1c(N)cc(N)cc1C(=O)O	103	54	-3	91
COc1ccc(CNC(=O)CCC2N=C3c4ccccc4N=C(SCc4ccc(F)cc4)N3C2=O)cc1 (stereo not given)	101	79	/	96
Cc1cccc(OCCn2c(SCC(N)=O)nc3ccccc32)c1	111	96	8	105
COc1cc(CC(=O)NC2CCC(C)CC2)cc(OC)c1OC (stereo not given)	105	100	-6	/
O=C(CN1CSCC1=O)Nc1cc(C(F)(F)F)ccc1NC1CCCCC1	128	99	20	/
C/C(=N\NC(=O)CNc1ccccc1)c1ccccc1	128	97	-5	109
Cn1c(=O)c(C(=O)Nc2ccccc2)nc2ccccc21	/	/	-175	106
COc1cc(-c2cc(C(F)(F)F)n3ncc(C(=O)Nc4cccnc4Cl)c3n2)cc(OC)c1OC	/	/	-12	96
COc1ccc2[nH]c3nc(SCC(=O)NC(C)(C)C)nnc3c2c1	99	82	-68	100
Cc1c(Cl)cccc1NC(=S)N1CCCN(c2nc3ccc(Cl)cc3s2)CC1	86	38	-12	107
CC(C)(C)C(=O)/C=C1\NC(=O)CS1	117	80	-33	/
COc1ccc(OC)c(CNC(=O)CCS(=O)(=O)c2ccc3c(c2)oc(=O)n3C)c1	112	95	/	100
CCCCOc1ccc(Cn2c(=O)sc3ccccc32)cc1	97	95	-16	102
Cc1nc2nc(CN3CCc4ccccc4C3)[nH]n2c(=O)c1C	/	/	-13	104
CCOc1ccc(OCC)c(Nc2ccc3cc(S(=O)(=O)N4CCCC4)ccc3n2)c1	86	91	/	109
O=C(O)CCS(=O)(=O)c1ccc2ccccc2c1	112	92	-20	/
CN(C)C(=O)/C=C\c1cn(-c2ccccc2)nc1-c1ccc2c(c1)OCCO2	104	83	-93	/
N#C/C(=C\C1CC=CCC1)c1nc2ccccc2c(=O)[nH]1 (stereo not given)	103	67	-12	101
O=S(=O)(Nc1ccccn1)c1ccccc1	78	91	6	/
Cc1ccc(-n2c(=O)c3oc4ccccc4c3n(Cc3ccccc3)c2=O)cc1C	112	105	/	108
COc1cc(C(=O)Oc2ccc(C#N)cc2)cc(OC)c1OC	90	85	-23	105
CN(C)c1nc(-c2cn(CCC#N)c3ccccc23)cs1	104	98	-19	/
COC(=O)c1ccccc1NC(=O)CN1C(=O)COc2ccc(Cl)cc21	103	86	-25	96
COc1ccc(-c2noc(CN3C(=O)c4ccccc4C3=O)n2)cc1	108	86	/	107
NC(N)=Nc1nc2ccccc2s1	54	37	/	108
Cc1noc2ncnc(SCc3ccc(C(F)(F)F)cc3)c12	107	82	-28	106
CNC(=S)N(Cc1cccnc1)Cc1cc2cc(OC)ccc2[nH]c1=O	91	81	-26	103
COc1ccc(CNC(=O)c2cc(Nc3ccc(C)cc3C)nc3ccccc23)cc1	105	87	-6	103
Cc1cccc(Nc2nc3c(S(=O)(=O)c4ccc(Br)cc4)nnn3c3ccsc23)c1C	110	87	/	100
c1ccc2c(c1)nnn2C12CC3CC(CC(C3)C1)C2	109	110	-7	109
CCC(=O)N1CCc2cc(S(=O)(=O)CCC(=O)N3CC(=O)N(CCc4ccccc4)C(=O)C3)ccc21	93	88	-24	96
COc1ccc(C=NNC(=O)Cn2cnc3c(=O)n(C)c(=O)n(C)c32)cc1	85	84	-40	101
CN(CC(=O)N1CCC(C(N)=O)CC1)S(=O)(=O)c1ccc(Br)cc1	96	100	14	107
CCS(=O)(=O)N1CCCc2cc(C(=O)Nc3cccc(C(C)=O)c3)ccc21	88	85	1	105
CC1CCCCC1N(C)C1CCN(CCCNC(=O)/C=C/c2cccc(C(F)(F)F)c2)CC1 (stereo not given)	100	95	/	101
O=C(O)CCC(=O)Nc1cc(C(F)(F)F)cc(C(F)(F)F)c1	88	84	/	97
CCc1ccc(NC(=O)c2ccc(F)c(S(=O)(=O)N3CCN(c4cc(C)ccc4C)CC3)c2)cc1	100	95	/	103
CCn1cc2c(n1)-c1c(oc(C(=O)N3CCc4ccccc4C3)c1C)CC2	108	61	/	113
Cc1nc(SCC(=O)Nc2ccc(Cl)cc2C(F)(F)F)[nH]c(=O)c1Cc1ccccc1	95	82	-10	105
Cc1ccc(Cn2c(=O)c3ccccc3n3c(SCC(N)=O)nnc23)cc1	116	96	11	/
COc1ccc(CC(=O)n2nc(-c3ccc(F)cc3)cc2SC)cc1OC	97	93	-25	99
Cn1c(N/C(=C/C(=O)c2cccs2)C(F)(F)F)nc2ccccc21	48	19	-23	/
Cc1ccc(CN(C)C(=S)Nc2cccc(C(F)(F)F)c2)o1	97	88	-3	/
C=CCn1c(SCc2ccc(C(=O)OC)cc2)nc2sc(C)c(C)c2c1=O	/	/	-14&-9	104&102
O=C(CN1C(=O)C2(SCC(=O)N2c2ccc(F)c(F)c2)c2ccccc21)Nc1cccc(Cl)c1 (stereo not given)	101	83	/	102
N#CCSc1n[nH]c2nc3ccccc3n12	/	/	2	112

Profiles, quoted from the list. Order of screens: Sa growth 42C	Sa growth 42C second temp	HCMV UL50-53 inh	GIV-Gai inh
`CN(C)C(=O)c1ccc2c(c1)N(CC(=O)Nc1ccc3c(c1)OCO3)C(=O)CS2` as listed: /	/	-20	115
`CCOC(=O)c1c(NC(=O)CCN2C(=O)c3cccc([N+](=O)[O-])c3C2=O)sc(C(C)=O)c1C` as listed: /	/	-20	100

Copied from the list:
COC(=O)c1ccccc1NC(=O)CN1C(=O)COc2ccc(Cl)cc21 | HCMV UL50-53 inh = -25
COc1ccc(OC)c(CNC(=O)CCS(=O)(=O)c2ccc3c(c2)oc(=O)n3C)c1 | Sa growth 42C second temp = 95
C=CCn1c(SCc2ccc(C(=O)OC)cc2)nc2sc(C)c(C)c2c1=O | GIV-Gai inh = 104&102
COc1ccc(CC(=O)n2nc(-c3ccc(F)cc3)cc2SC)cc1OC | Sa growth 42C second temp = 93

(next part)
SMILES	Sa growth 42C	Sa growth 42C second temp	HCMV UL50-53 inh	GIV-Gai inh
COc1ccc(-c2nc(SCC(=O)Nc3ccc4c(c3)OCO4)c(-c3ccc(OC)cc3)[nH]2)cc1	99	67	-17	102
Cc1ncc(CO)c2c1Oc1nc(-c3ccc(F)cc3)nc(SCc3ccc(F)cc3Cl)c1C2	75	64	/	102
COc1ccccc1NC(=O)CC(C)(C)C	93	107	11	95
Cc1ccccc1CN1c2ccccc2-c2nc(SCC(N)=O)ncc2S1(=O)=O	95	87	/	103
CCOC(=O)N1CCC(NC(=O)CCc2nc(-c3ccc(C)cc3)no2)CC1	99	97	0	104
CCC(c1ccccc1)c1nc(-c2ccccc2)no1 (stereo not given)	103	95	-13	104
CCOc1cccc(=O)c2c(C)n(-c3ccc(OC)cc3)c(C)c12	79	67	-26	/
CCCC(=O)Nc1ccc(C(=O)NN)cc1	81	93	-3	/
Cc1ccc(-n2nc(C)c3onc(C)c3c2=O)cc1	105	92	-16	107
CC1CCCN(C(=O)COc2ccc(-c3ccccc3)cc2)C1 (stereo not given)	105	91	-6	/
CC1(C)CC(=O)c2ccc(OCC(=O)Nc3ccc(Br)cc3)cc2O1	128	83	-2	102
COc1cc(C(=O)Nc2ccccc2-c2nc(-c3ccc(C)cc3)no2)cc(OC)c1OC	114	88	-2	99
CC(C)CC(=O)Nc1cc(Cl)ccc1Cl	99	100	0	99
COc1ccc(C(=O)OCc2c(C)noc2C)cc1S(=O)(=O)NCc1ccc(Cl)cc1	103	75	-29	/
O=C(O)c1ccc(Nc2cnc3ccccc3n2)cc1	/	/	-73	97
O=C(/C=C/c1ccco1)Nc1cccc2cccnc12	97	73	/	105
N#CC(C#N)=CNNc1ncnc2sccc12	99	96	-10	104
CCOc1ccc(S(=O)(=O)Nc2ccc3c(c2)c(C(C)=O)c(C)n3S(=O)(=O)c2ccc(OCC)cc2)cc1	92	95	-12	98
O=C(NCc1ccccc1Cl)C1CC1	77	98	9	103
CCc1nn2c(=O)c(S(=O)(=O)Nc3ccc(OC)c(Cl)c3)c(C)nc2s1	92	81	-9	102
O=C(O)c1ccc(NCc2ccco2)cc1	101	89	-26	98
O=C(Nc1cccc(Cl)c1)c1ccc2nc(Cc3ccccc3)oc2c1	87	87	/	100
CCC(=O)Nc1nc2ccccc2n1CCCN(C)C	/	/	6	101
CCOc1ccc(Cn2c(=O)[nH]c3c2c(=O)n(C)c(=O)n3C)cc1OCC	83	79	3	101
O=C(O)/C=C/c1ccc(-c2ccccc2)o1	102	78	-89	107
Cc1ccc(OCc2nc(SCC(=O)NC(=O)NC3CCCC3)n[nH]2)cc1	118	98	2	/
O=C(CSc1nc2ccccc2o1)c1ccc2c(c1)OCCO2	109	77	-9	102
CC(=O)N1CCN(CCN2C(C)=CC(=C(C#N)C#N)C=C2C)CC1	106	91	-37	/
Cc1ccc(-n2c(N)cc(=O)[nH]c2=O)cc1	89	81	-30	106&105
CCOc1ccccc1CNC(=O)CN1C(=O)CSc2ccc(S(=O)(=O)N3CCOCC3)cc21	99	91	/	101

Quoted at random: 2 entries already listed.
SMILES	Sa growth 42C	Sa growth 42C second temp	HCMV UL50-53 inh	GIV-Gai inh
CC(=O)N1CCN(CCN2C(C)=CC(=C(C#N)C#N)C=C2C)CC1	106	91	-37	/
O=C(NCc1ccccc1Cl)C1CC1	77	98	9	103

Going on with the list:
SMILES	Sa growth 42C	Sa growth 42C second temp	HCMV UL50-53 inh	GIV-Gai inh
Cn1c(C(=O)NCc2ccccn2)cc2c(=O)oc3ccccc3c21	/	/	14	102
O=C(COc1cccc(F)c1)OCC(=O)c1cccc(Cl)c1	114	92	-15	/
COc1cc(Br)c(/C=C2\C(=O)N(c3ccc(C(=O)OC(C)C)cc3)N=C2C)cc1OC	/	/	6	100
N#CC(C#N)=C1C=C2C=C(N3CCc4ccccc4C3)CCC2CC1 (stereo not given)	90	97	-9	/
Cc1ccc2c(c1)cc1c(=O)n(Cc3ccccc3Cl)nc(C)n12	104	84	-26	103
O=C(CSc1ccccc1)NCC1CCCO1 (stereo not given)	110	91	12	/
Cc1ccc(S(=O)(=O)CNC=O)cc1	97	84	-37	102
COC(=O)c1ccc(COC(=O)c2cccc(S(=O)(=O)N3CCc4ccccc43)c2)o1	110	96	20	/
CCOc1ccccc1C(=O)NC1(C(F)(F)F)C(=O)Nc2c1c(=O)[nH]c(=O)n2-c1ccc(F)cc1 (stereo not given)	88	89	-36	103
CC(C)c1ccc(NC(=O)Cn2nnc(C(=O)NCCc3ccccc3)c2N)cc1	90	82	/	101
Nc1nncn1C(=O)c1ccccc1F	87	96	2	/
CC(=O)Nc1ncc2c(n1)CC(c1ccc(C)cc1)CC2=O (stereo not given)	95	95	-2&-10	111&101
Cc1cc(C)c2c(c1)c1n[nH]c(=S)nc1n2C	107	67	-62	102
CC(C)OC(=O)CSc1nc2ccccc2[nH]1	76	97	/	103
CC(C)CN(CC(C)C)c1nnc(N)s1	99	83	-22	98
COc1ccc(Nc2nc(N)c3ccccc3n2)cc1	/	/	22	103
c1ccc(Cc2nnc3sc(-c4ccc5ccccc5n4)nn23)cc1	/	/	-1	117
O=S(=O)(c1ccc(-c2ccccn2)s1)N1CCOCC1	102	97	-42	102
O=c1cc(/C=C/c2ccccc2)oc2ccccc12	84	50	/	110
COc1ccc(NC(=O)Cc2csc(NC(=O)c3cc(OC)cc(OC)c3)n2)cc1	/	/	-27	102
CN(N)c1nc(N2CCCC2)nc(N2CCCC2)n1	83	70	-19	103
S=C(NC1CCCCC1)Sc1ccc(Cl)cc1	67	17	0	103

4 compounds already listed, arranged by their value in Sa growth 42C second temp, largest number first.
SMILES	Sa growth 42C second temp
O=S(=O)(c1ccc(-c2ccccn2)s1)N1CCOCC1	97
CN(N)c1nc(N2CCCC2)nc(N2CCCC2)n1	70
O=c1cc(/C=C/c2ccccc2)oc2ccccc12	50
S=C(NC1CCCCC1)Sc1ccc(Cl)cc1	17

High-throughput results (PubChem)
